High-throughput results from PubChem.
RE007 growth inh = qHTS Assay for Inhibitors of the HIV-1 protein Vpr. S. pombe RE007 Vpr strain, BacTiter-Glo ATP luminescence, 24 h; control for the full effect not named in the record. Potency, µM (top dose mostly 92.2 µM), for the others: top-dose activity change, negative = less growth. hit rate 0.21% among 360,000; active = well fitted falling curve with a large enough effect; inconclusive = small, poorly fitted or top-dose-only effect; inactive = no such curve, though single readings can be large or run the other way;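 further: on the % scale 0 is the no-effect control and ±100 the full control effect; nearly all actives have a fitted effect of over 50% in size; the assay follows cell death caused by Vpr and the record does not say whether a fall means rescue or toxicity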
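Fission yeast strain RE007, carrying one chromosomally integrated HIV-1 vpr copy, was seeded at OD 0.01 in PMG+AL medium with 23 nL pinned compound. After 24 h at 30 °C and 99% humidity, viability was read by BacTiter-Glo luminescence.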
Cruzain inh Det = qHTS Assay for Promiscuous and Specific Inhibitors of Cruzain (with detergent); Cruzipain (Trypanosoma cruzi), P25779; purified cruzain, Z-FR-AMC fluorescence, 0.01% Triton; Potency, µM, inactives show max response, negative = inhibition, actives largely listed as inhibitors; hit rate 0.43% among 200,000; active means well fitted curve in the direction sought with a large enough effect; inconclusive means small, poorly fitted or top-dose-only effect, or another doubt; inactive means no such curve, though single readings can be large; an effect the other way counts as inactive or inconclusive;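 further: plate controls were neutral wells for no effect and buffer without enzyme for full effect; nearly all actives have a fitted effect of over 40% in size; top concentration of the series not given in the record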
Target sequence (P25779 123-467 limits assumed): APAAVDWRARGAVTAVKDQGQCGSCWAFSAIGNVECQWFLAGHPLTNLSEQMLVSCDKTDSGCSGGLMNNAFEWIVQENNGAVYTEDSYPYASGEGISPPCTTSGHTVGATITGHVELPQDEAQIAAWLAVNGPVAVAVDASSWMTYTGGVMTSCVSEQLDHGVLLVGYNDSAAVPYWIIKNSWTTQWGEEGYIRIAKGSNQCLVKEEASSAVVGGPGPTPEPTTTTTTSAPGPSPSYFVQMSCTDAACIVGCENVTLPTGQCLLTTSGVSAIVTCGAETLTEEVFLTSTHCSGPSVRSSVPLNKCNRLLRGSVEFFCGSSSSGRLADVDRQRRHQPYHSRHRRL
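Cruzain (1.5 nM) preincubated 15 min at RT with compound in 100 mM sodium acetate pH 5.5, 5 mM DTT, 0.01% Triton X-100. Reaction started with 2 uM Z-FR-AMC; AMC fluorescence (ex 360/em 450 nm) change over 60 s gave rate.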
2A StopGo = High Throughput Screening for Foot and Mouth Disease Virus Antivirals. human cells with a luciferase reporter of 2A StopGo recoding; control for the full effect not named in the record. hit rate 1.2% among 410,000. AID 1159524, 2015. Potency, µM (top dose mostly 57.9 µM), without a hit: at the top dose signal change, negative = less light; active = well fitted falling curve with a large enough effect; inconclusive = small, poorly fitted or top-dose-only effect; inactive = no such curve, though single readings can be large or run the other way; tested in HEK293T cells; further: on the % scale 0 is the no-effect control and ±100 the full control effect; nearly all actives have a fitted effect of over 45% in size; luciferase light after 4 h
SARS PLP yeast = qHTS of Yeast-based Assay for SARS-CoV PLP; S. cerevisiae expressing SARS-CoV PLpro, growth rescue; control for the full effect not named in the record; hit rate 0.19% among 330,000; Potency, µM (top dose mostly 32.9 µM), inactives show top-dose activity, positive = growth rescue; further: 0% is about no effect; nearly all actives have a fitted effect of over 55% in size; growth read by luminescence after 48 h
Lassa entry inh = qHTS for Inhibitors of binding or entry into cells for Lassa Virus; Lassa virus pseudotype entry inhibition, cell reporter; control for the full effect not named in the record; Potency, µM (series often up to 37.9 µM), for inactives: at the top dose activity change, negative = inhibition, most hits filed as inhibitors; hit rate 1.2% among 300,000; AID 540256, 2011; active means well fitted inhibition curve with a large enough effect; inconclusive means small, poorly fitted or top-dose-only effect, or effect the other way; inactive means flat fitted curve, though single readings scatter; tested in HEK293 cells; further: on the % scale 0 is the no-effect control and ±100 the full control effect; nearly all actives have a fitted effect of over 50% in size; luciferase read-out
NS1 function inh = qHTS Assay for Inhibitors of Influenza NS1 Protein Function. Potency, µM (titrated, usually from 46.1 µM), without a hit: top-dose activity, positive = more growth. S. cerevisiae slowed by influenza A NS1, growth recovery by OD600. hit rate 0.4% among 270,000. AID 2326, 2010; further: actives are rising curves; nearly all actives have a fitted effect of over 50% in size
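Growth recovery, yeast-based: influenza A NS1 expressed in S. cerevisiae causes slow growth, and suppressors are detected by OD600. The parent strain without NS1 is used as positive control.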
Marburg entry inh = qHTS for inhibitors of binding or entry into cells for Marburg Virus; AID 540276, 2011; Marburg virus pseudotyped entry inhibition, cell reporter; control for the full effect not named in the record; about a third of the inactives were read at about 46 µM; hit rate 1.8% among 300,000; Potency, µM (series often up to 37.8 µM), for inactives: at the top dose activity change, negative = inhibition, usual class: inhibitors; active = well fitted inhibition curve with a large enough effect; inconclusive = small, poorly fitted or top-dose-only effect, or effect the other way; inactive = flat fitted curve, though single readings scatter; tested in HEK293 cells; about a fifth of its hits are not listed in these tables; further: on the % scale 0 is the no-effect control and ±100 the full control effect; luciferase read-out
Cruzain noTriton = qHTS Assay for Promiscuous and Specific Inhibitors of Cruzain (without detergent); Cruzipain (Trypanosoma cruzi), P25779; purified cruzain, Z-FR-AMC fluorescence, no detergent; Potency, µM, inactives show max response, negative = inhibition, hits mostly inhibitors; hit rate 2.3% among 200,000; active means well fitted curve in the direction sought with a large enough effect; inconclusive means small, poorly fitted or top-dose-only effect, or another doubt; inactive means no such curve, though single readings can be large; an effect the other way counts as inactive or inconclusive;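 further: plate controls were enzyme without inhibitor for no effect and buffer without enzyme for full effect; nearly all actives have a fitted effect of over 40% in size; top concentration of the series not given in the record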
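Detergent-free condition (0.00005% Triton X-100) in acetate buffer pH 5.5 with DTT. 1.5 nM enzyme and compound were pre-mixed 15 min, then 2 uM Z-FR-AMC substrate added; reaction progress from fluorescence change between first and third reads (60 s).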
* marks the source's active call; other numbers are inactive results; u = inconclusive; x = not tested or not shown; & = joins results of further samples; [ ] = another dose, or the depositor's remark. Unless noted, the call rests on the fitted dose curve; in most records, active means well fitted rising curve with a large enough effect; inconclusive means small, poorly fitted or top-dose-only effect; inactive means no such curve, though single readings can be large or run the other way. Potency means the concentration at half of the fitted maximal effect.

Structure	Cruzain inh Det	Lassa entry inh	2A StopGo	SARS PLP yeast	RE007 growth inh	Cruzain noTriton	Marburg entry inh	NS1 function inh
Cc1ccc(C)c(N(CC(=O)NC2CCCCC2)C(=O)c2snc(C(N)=O)c2N)c1	x	-16.1%[46.1 µM]	-0.1%	0.5%	-11.7%	x	u	12.6%
Cc1ccnc(NC(=O)c2ccc(S(=O)(=O)N3CCC(C)CC3)cc2)c1	x	-20.4%	-16.1%	-5.8%	-12.6%	x	u	x
COc1ccc(NC(=O)Nc2cccc(C(F)(F)F)c2)cn1	x	u	-4.8%	-12.7%	-6.6%	x	-26.3%[46.1 µM]	-22.9%
CCCn1ncc(CN2CCC(n3nccc3NC(=O)c3ccccc3Cl)CC2)c1C	x	8.5%	-18.7%	0.7%	0.6%	x	u	1.8%
CCN(CC)c1ccc2c(Cl)cc(=O)oc2c1	-12.8%	u	10.7%	-9.3%	-6.5%	-15.9%	u	-51.2%
Oc1c(C2=NCCNC(C(F)(F)F)=C2)ccc2ccccc12	x	u	41.7%[activator]	-0.4%	10.3%	x	x	-0.1%
Cc1cc(NC(=O)CS(=O)(=O)c2ccc(F)cc2)no1	x	-0.1%	-10.7%	1.8%	1.0%	x	10.6%	x
COc1ccc(CCNC(=O)CNCC2CCCO2)cc1OC (stereo not given)	5.6%	u	x	0.8%	2.3%	-1.4%	-9.0%	-2.7%
O=C(N/N=C/c1cccs1)c1cc(-c2cccc3ccccc23)n[nH]1	-6.7%	x	0.0%	-58.7%	12.8%	u	5.0%	4.8%
CCOc1cc(/C=N/NC(=O)c2cccnc2)ccc1OCC(N)=O	x	x	-5.4%	1.7%	1.0%	x	-2.9%[46.1 µM]	x
O=C(COC(=O)c1ccc(Br)o1)NC12CC3CC(CC(C3)C1)C2	x	11.3%	-16.8%	5.7%	-6.4%	x	31.0%	x
Nc1ccc(-c2cn3cccnc3n2)cc1	x	15.3%	0.4%	-0.2%	-17.8%	x	-7.3%	4.3%
Cc1ccc(C(=O)N/N=C/c2cc(Br)ccc2O)cn1	x	x	16.5%	15.8%	6.6%	x	x	-112.9%
Cc1cc(C)c2[nH]c(=O)c(C(c3nnnn3CC3CCCO3)N3CCCC(C)C3)cc2c1 (stereo not given)	-2.3%	-9.7%	5.0%	0.0%	8.5%	u	-10.8%	-21.4%
COCC(=O)OCC(=O)Nc1cc(C)c(C)cc1[N+](=O)[O-]	-2.1%	1.3%	27.9%	-17.0%	-0.1%	4.0%	5.3%[46.1 µM]	-18.2%
Cc1ccc(NC(=O)Cn2c(=O)n(Cc3nc(C)no3)c(=O)c3cc4c(cc32)OCO4)c(Cl)c1	-1.7%	7.3%[46.1 µM]	-7.5%	x	x	3.5%	x	x
N#C/C(=N\Nc1ccc(S(=O)(=O)N2CCOCC2)cc1)C(N)=S	x	4.6%	15.4%	-0.2%	34.8%	x	5.7%[46.1 µM]	-0.6%
Cc1csc(=Nc2ccccc2)n1CCCN1CCCC1=O	x	1.1%	34.8%[activator]	0.3%	-28.7%	x	u	4.7%
COc1ccc(-c2cc(C(F)(F)F)c3c(n2)sc2c(O)cc(=O)[nH]c23)c(OC)c1	u	-4.9%	-27.7%	0.7%	x	25.1%	-9.3%	21.6%
CN(C(=O)COC(=O)c1cccc(S(=O)(=O)N2CCCCCC2)c1)C1CCS(=O)(=O)C1 (stereo not given)	x	0.8%	-10.7%	1.2%	4.3%	x	-26.2%	x
Cc1cc(NC(=O)CSC2=NS(=O)(=O)c3cc(F)ccc3N2)no1	x	17.8%	-4.0%	1.8%	-22.1%	x	3.3%[46.1 µM]	x
Cc1ccc(-c2nnn(CC(=O)N(CC(=O)NCC3CCCO3)c3ccccc3)n2)o1 (stereo not given)	1.7%	-2.1%	24.5%	-6.3%	-6.7%	7.9%	u	-0.1%
COc1ccccc1CNC(=O)c1cc2sccc2n1Cc1ccc(F)cc1	0.6%	1.0%[46.1 µM]	-4.2%	x	x	23.3%	u	x
COc1ccccc1OCCn1cc(C=O)c2ccccc21	x	10.2%[46.1 µM]	-22.0%	10.3%	7.3%	x	u	24.6%
O=c1oc2ccccc2c(NCc2ccccc2F)c1[N+](=O)[O-]	-3.0%	2.8%	-28.4%	-2.7%	0.2%	28.3%	u	-1.3%
CC1C=CCC2C(=O)N(c3ccc(OC(=O)c4ccco4)cc3)C(=O)C12 (stereo not given)	x	x	-14.0%	-0.3%	-11.8%	x	x	-12.3%
O=C(O)C1CCc2sc3[nH]c(=S)n(-c4ccccc4)c(=O)c3c21 (stereo not given)	x	-9.2%	1.0%	0.8%	-1.3%	x	-0.8%[46.1 µM]	14.1%
Cc1cccc(NC(=O)c2cc3c([nH]c2=O)CC(c2ccccc2)CC3=O)c1 (stereo not given)	0.1%	-2.5%[46.1 µM]	-12.0%	x	x	-18.9%	x	x
COc1cccc(-c2csc(-c3c(N)c(C(=O)c4ccccc4)n4ccccc34)n2)c1	-3.4%	-4.2%[46.1 µM]	-15.9%	x	x	7.94µM*	0.6%[46.1 µM]	x
CCOC(=O)c1nn2c(C(F)(F)F)cc(-c3ccc(OC)cc3)nc2c1Br	x	x	-4.5%	15.0%	-0.3%	x	x	u
O=C1CC(N2CCN(c3ccccc3O)CC2)C(=O)N1Cc1ccccc1 (stereo not given)	x	1.9%[46.1 µM]	-21.8%	-4.1%	-23.9%	x	4.5%[46.1 µM]	x
O=C(NNC(=S)Nc1ccccc1)NNC(=S)Nc1ccccc1	x	1.5%	-1.8%	-0.5%	9.3%	x	u	2.2%
N#CC1=C(SCc2ccccc2)NC2=C(C(=O)CCC2)C1c1ccc2c(c1)OCO2 (stereo not given)	-1.9%	u	-18.6%	3.8%	-1.4%	u	u	u
CCC(C)(CC(=O)N(C)CCC#N)c1ccccc1 (stereo not given)	2.6%	4.0%	-3.4%	-2.0%	17.9%	14.3%	14.2%	2.1%
Cc1ccccc1C(=O)N1CCC(C(=O)Nc2cc(C(F)(F)F)ccc2N2CCCC2)CC1	x	-0.9%	u	0.6%	4.7%	x	3.8%	x
Cc1ccc2nc(SCC(=O)Nc3ccc(F)cc3F)[nH]c2c1	x	12.1%[46.1 µM]	4.5%	-0.4%	14.8%	x	-4.9%[46.1 µM]	5.2%
O=[N+]([O-])c1ccccc1S(=O)(=O)n1cnc2ccccc21	x	-6.2%	-14.1%	0.3%	4.7%	x	5.0%[46.1 µM]	3.9%
Cc1cc2c(cc1NC(=O)c1ccccc1C)n(C)c(=O)c(=O)n2C	-3.4%	-13.5%[46.1 µM]	-7.8%	x	x	-1.6%	x	x
Cc1ccc(-c2nnc(SCC#CCOC(=O)c3ccco3)o2)cc1	3.5%	5.8%	44.8%[activator]	2.9%	-4.3%	2.1%	-6.1%	-73.4%
Cc1ccc(Cn2c(CNC(=O)Cc3cccc(C)c3)nc3cccnc32)cc1	-2.0%	-0.5%[46.1 µM]	7.7%	x	x	2.1%	x	x
CC(=O)N(c1ccc(N(C(C)=O)S(=O)(=O)c2cccs2)cc1)S(=O)(=O)c1cccs1	2.5%	0.1%	14.6%	6.8%	11.7%	u	-23.2%&-23.2%	-7.3%
CC1Cc2ccccc2N1C(=O)Cn1cnc2ccccc21 (stereo not given)	x	13.4%[46.1 µM]	0.0%	-1.0%	9.5%	x	u	4.7%
Cc1ccc(Cl)cc1NC(=O)Nc1c(C)n(C)n(-c2ccccc2)c1=O	-0.5%	-7.6%	-16.4%&-5.2%	15.7%	-8.5%	13.6%	26.9%	-14.9%
CCOC(=O)c1c(NC(=O)c2nc(SCC)ncc2Cl)sc2c1CCCC2	-1.3%	u	-24.6%	x	x	11.1%	-0.3%[46.1 µM]	x
Cc1ccc(-n2c(COc3ccccc3)n[nH]c2=S)cc1	x	0.9%	-4.2%	8.2%	0.5%	x	-24.3%[46.1 µM]	x
CC(C)(C)c1nnc(SCC(=O)c2ccccc2)n(N)c1=O	-18.0%	2.3%	9.7%	6.9%	-4.3%	-8.6%	u	u
CC(C)(C)n1nnnc1C(c1cccs1)N(Cc1ccc(Cl)cc1)CC1CCCO1 (stereo not given)	-1.1%	u	u	x	-5.9%	-0.8%	u	-0.8%
CCCCC1=NN2CCS(=O)(=O)N=C2S1	x	-8.8%	-17.8%	11.8%	0.9%	x	-0.8%[46.1 µM]	x
O=C1NC(=O)/C(=C\c2ccc(OCc3cccc([N+](=O)[O-])c3)cc2)N1	x	-12.6%	8.0%	-5.1%	3.1%	x	15.6%[46.1 µM]	x
COc1ccc(Cl)cc1S(=O)(=O)Nc1cccc(C(=O)O)c1	2.8%	22.9%	41.7%[activator]	5.1%	-2.9%	4.0%	-15.2%	-9.0%
CCCCNC(=O)N(O)C1N(/N=C/c2ccc(N(C)C)cc2)C(=S)SC1(C)C (stereo not given)	x	2.5%[46.1 µM]	49.1%[activator]	-0.2%	7.7%	x	8.4%[46.1 µM]	-8.7%
